NS1 inh = qHTS Assay for Inhibitors of Influenza NS1 Protein Function | Potency, µM (top dose mostly 46.1 µM), for the others: at the top dose activity, positive = more growth | AID 2326, 2010 | S. cerevisiae slowed by influenza A NS1, growth recovery by OD600 | 0.4% of 270,000 active; note: actives are rising curves; nearly all actives have a fitted effect of over 50% in size
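In this qHTS, NS1 from influenza A is expressed in budding yeast, where it slows growth. Cells are switched from glucose to 2% galactose medium (pH 6.0, -URA), treated with compound, and growth recovery is read at OD600.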
Cruzain inh Det = qHTS Assay for Promiscuous and Specific Inhibitors of Cruzain (with detergent). 0.43% of 200,000 active. Potency, µM, for the others: max response, negative = inhibition, usual class: inhibitors. Cruzipain (Trypanosoma cruzi), P25779. purified cruzain, Z-FR-AMC fluorescence, 0.01% Triton; active = well fitted curve in the direction sought with a large enough effect; inconclusive = small, poorly fitted or top-dose-only effect, or another doubt; inactive = no such curve, though single readings can be large; an effect the other way counts as inactive or inconclusive;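 note: plate controls were neutral wells for no effect and buffer without enzyme for full effect; nearly all actives have a fitted effect of over 40% in size; top concentration of the series not given in the record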
Target sequence (P25779 123-467 limits assumed): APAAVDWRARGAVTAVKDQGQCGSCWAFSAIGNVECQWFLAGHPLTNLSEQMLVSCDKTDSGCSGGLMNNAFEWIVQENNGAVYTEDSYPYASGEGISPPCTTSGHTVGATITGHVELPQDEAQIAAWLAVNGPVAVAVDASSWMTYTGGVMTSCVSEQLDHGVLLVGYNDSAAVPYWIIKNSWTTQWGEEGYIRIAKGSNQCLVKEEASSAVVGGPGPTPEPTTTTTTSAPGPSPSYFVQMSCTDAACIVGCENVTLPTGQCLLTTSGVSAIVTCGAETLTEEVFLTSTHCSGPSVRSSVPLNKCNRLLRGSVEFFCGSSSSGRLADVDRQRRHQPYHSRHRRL
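Cruzain (1.5 nM) preincubated 15 min at RT with compound in 100 mM sodium acetate pH 5.5, 5 mM DTT, 0.01% Triton X-100. Reaction started with 2 uM Z-FR-AMC; AMC fluorescence (ex 360/em 450 nm) change over 60 s gave rate.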
SARS PLP yeast = qHTS of Yeast-based Assay for SARS-CoV PLP; S. cerevisiae expressing SARS-CoV PLpro, growth rescue; control for the full effect not named in the record; Potency, µM (titrated, usually from 32.9 µM), without a hit: top-dose activity, positive = growth rescue; 0.19% of 330,000 active; note: 0% is about no effect; nearly all actives have a fitted effect of over 55% in size; growth read by luminescence after 48 h
LASV entry inh = qHTS for Inhibitors of binding or entry into cells for Lassa Virus; Lassa virus pseudotype entry inhibition, cell reporter; control for the full effect not named in the record; Potency, µM (series often up to 37.9 µM), for inactives: at the top dose activity change, negative = inhibition, actives largely listed as inhibitors; 1.2% of 300,000 active; AID 540256, 2011; active means well fitted inhibition curve with a large enough effect; inconclusive means small, poorly fitted or top-dose-only effect, or effect the other way; inactive means flat fitted curve, though single readings scatter; tested in HEK293 cells; note: % is set by controls: 0 for no effect and ±100 for the full control effect; nearly all actives have a fitted effect of over 50% in size; luciferase read-out
2A StopGo = High Throughput Screening for Foot and Mouth Disease Virus Antivirals; human cells with a luciferase reporter of 2A StopGo recoding; control for the full effect not named in the record; Potency, µM (top dose mostly 57.9 µM), inactives show at the top dose signal change, negative = less light; 1.2% of 410,000 active; active = well fitted falling curve with a large enough effect; inconclusive = small, poorly fitted or top-dose-only effect; inactive = no such curve, though single readings can be large or run the other way; tested in HEK293T cells; note: % is set by controls: 0 for no effect and ±100 for the full control effect; nearly all actives have a fitted effect of over 45% in size; luciferase light after 4 h
MARV entry inh = qHTS for inhibitors of binding or entry into cells for Marburg Virus | Potency, µM (doses to about 37.8 µM), inactives show at the highest dose activity change, negative = inhibition, usual class: inhibitors | AID 540276, 2011 | 1.8% of 300,000 active | Marburg virus pseudotyped entry inhibition, cell reporter; control for the full effect not named in the record; about a third of the inactives were read at about 46 µM; active = well fitted inhibition curve with a large enough effect; inconclusive = small, poorly fitted or top-dose-only effect, or effect the other way; inactive = flat fitted curve, though single readings scatter; tested in HEK293 cells; about a fifth of its hits are not listed in these tables; note: % is set by controls: 0 for no effect and ±100 for the full control effect; luciferase read-out
Cruzain noTriton = qHTS Assay for Promiscuous and Specific Inhibitors of Cruzain (without detergent); Cruzipain (Trypanosoma cruzi), P25779; 2.3% of 200,000 active; purified cruzain, Z-FR-AMC fluorescence, no detergent; Potency, µM, without a hit: max response, negative = inhibition, usual class: inhibitors; AID 1476, 2009; active = well fitted curve in the direction sought with a large enough effect; inconclusive = small, poorly fitted or top-dose-only effect, or another doubt; inactive = no such curve, though single readings can be large; an effect the other way counts as inactive or inconclusive;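 note: plate controls were enzyme without inhibitor for no effect and buffer without enzyme for full effect; nearly all actives have a fitted effect of over 40% in size; top concentration of the series not given in the record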
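Purified cruzain at 1.5 nM, pre-incubated 15 min with compound at room temperature in 100 mM sodium acetate pH 5.5, 5 mM DTT, 0.00005% Triton X-100. Reaction started with 2 uM Z-FR-AMC; AMC fluorescence increase over 60 s gives rate.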
RE007 growth inh = qHTS Assay for Inhibitors of the HIV-1 protein Vpr | S. pombe RE007 Vpr strain, BacTiter-Glo ATP luminescence, 24 h; control for the full effect not named in the record | Potency, µM (doses to about 92.2 µM), inactives show top-dose activity change, negative = less growth | 0.21% of 360,000 active | AID 651644, 2012; active = well fitted falling curve with a large enough effect; inconclusive = small, poorly fitted or top-dose-only effect; inactive = no such curve, though single readings can be large or run the other way;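 note: % is set by controls: 0 for no effect and ±100 for the full control effect; nearly all actives have a fitted effect of over 50% in size; the assay follows cell death caused by Vpr and the record does not say whether a fall means rescue or toxicity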
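Fission yeast RE007 carrying one integrated HIV-1 vpr copy, seeded at OD 0.01 in PMG+AL medium with 23 nL pinned compound. Grown 24 h at 30 degrees; viability read by BacTiter-Glo luminescence after 5 min.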
* hit, by the source's call; ? = inconclusive; / = no result given; & = joins results of further samples; [ ] = dose if it differs, or a comment. Unless noted, calls come from the whole dose curve; as a rule, active means well fitted rising curve with a large enough effect; inconclusive means small, poorly fitted or top-dose-only effect; inactive means no such curve, though single readings can be large or run the other way. Potency is the fitted concentration of half-maximal effect.

SMILES	NS1 inh	Cruzain inh Det	SARS PLP yeast	LASV entry inh	2A StopGo	MARV entry inh	Cruzain noTriton	RE007 growth inh
CN1CCN(C(CNS(=O)(=O)c2cccs2)c2cccnc2)CC1 (stereo not drawn)	3%	/	1%	/	2%	/	/	-8%
COc1ccc(N(C(=O)c2ccco2)C(C(=O)NC2CCCC2)c2ccccc2)cc1 (stereo not drawn)	0%	/	1%	?	-9%	?	/	-14%
CN1CCN(/N=C/c2ccc(N(C)c3ccccc3)cc2)CC1	-1%	/	-2%	1%	1%	?	/	2%
O=C(CSc1nnc(NC(=O)c2ccc(F)cc2)s1)NCc1ccco1	8%	/	1%	?	40%[activator]	/	/	7%
CC(OC(=O)CN1C(=O)NC2(CCCC2)C1=O)C(=O)c1ccc(C(C)(C)C)cc1 (stereo not drawn)	/	/	2%	-6%	-23%	18%	/	8%
O=C(Cc1ccc(Cl)c(Cl)c1)Nc1cccnc1	-18%	/	-2%	-2%	-19%	-14%[46.1 µM]	/	-13%
COc1cc(OC)c(NC(=O)Cn2cnc3sc(C)c(S(=O)(=O)N4CCN(C)CC4)c3c2=O)cc1Cl	/	-0.7%	/	?	-3%	-14%[46.1 µM]	-4%	/
CCOC(=O)c1csc(NC(=O)CSc2nnnn2-c2ccc3c(c2)OCCO3)n1	5%	-0.7%	-1%	-8%	-27%	-5%	10%	18%
CC(C)N(C(=S)Nc1ccc(S(=O)(=O)N2CCOCC2)cc1)c1ccccc1	/	/	3%	-4%[46.1 µM]	-3%	1%[46.1 µM]	/	4%
O=C1CSC(c2ccccc2)N1c1ccc([N+](=O)[O-])cc1 (stereo not drawn)	11%	/	0%	2%	-29%	24%	/	5%
Cc1ccccc1N1Cc2ccccc2C1	?	1.5%	5%	1%	-2%	-25%	5%	3%
Cc1ccc2c(c1C)-c1c(ccc(C)c1C)C(=O)C2=O	/	/	/	?	28µM*	?	/	45µM*
O=C(O)c1ccc(SCc2cnc(Cl)s2)cc1	-114%	15%	-18%	4%	10%	-1%	10%	11%
Cc1cccn2c(=O)nc(SCC(=O)N3CCC(Cc4ccccc4)CC3)nc12	/	/	-5%	-25%	-4%	0%	/	13%
CS(=O)(=O)CCSc1ncccc1C(=O)NCc1cccs1	2%	/	1%	/	3%	/	/	-4%
COCCNC(=S)N1CCN(c2cccc(C)c2C)CC1	/	/	-3%	22%	-8%	?	/	4%
CCCn1nc(C(=O)OCC(=O)c2ccccc2)c2ccccc2c1=O	-4%	/	-8%	-1%	-7%	7%[46.1 µM]	/	-6%
COc1cccc(C(=O)Nc2sc3c(c2C(=O)O)CCCC3)c1	-24%	/	-4%	10µM*	32%[activator]	11µM*	/	-13%
CC(=O)c1ccc(N(CC(=O)NC2CCCCC2)C(=O)CNC(=O)c2ccco2)cc1	-2%	/	2%	2%[46.1 µM]	-4%	3%[46.1 µM]	/	-3%
O=C(Nc1ccccc1N1CCOCC1)C1CCN(S(=O)(=O)c2cccc(C(F)(F)F)c2)CC1	9%	-1.2%	6%	-8%	0%	?	41%	13%
O=C(c1ccc(Br)o1)N1CC=C(c2ccccc2)CC1	/	/	1%	-6%	0%	-2%	/	0%
COc1ccc(CN2CCC(n3nccc3NC(=O)CCOc3ccccc3)CC2)cc1C	-9%	/	?	?	0%	?	/	1%
Cc1cccc(NC(=O)C(=O)NCCCN2CCOCC2)c1	/	1.5%	0%	4%&23%[46.1 µM]	-9%&15%	11%&15%[46.1 µM]	-17%	3%
CCOC(=O)N1C(=O)NC(=O)C1c1ccc(Cl)cc1 (stereo not drawn)	/	/	/	1%[46.1 µM]	-3%	9%	/	16%
CCOC(=O)c1c(C)[nH]c(C)c1S(=O)(=O)N1CCN(c2ccc([N+](=O)[O-])cc2)CC1	0%	/	11%	/	-28%	/	/	1%
Next results.
SMILES	NS1 inh	Cruzain inh Det	SARS PLP yeast	LASV entry inh	2A StopGo	MARV entry inh	Cruzain noTriton	RE007 growth inh
Cc1cc(=O)oc2cc(O)c(N=Nc3ccccc3)cc12	-1%	/	0%	-13%[46.1 µM]	3%	?	/	-15%
CCc1ccc(OCC(=O)N(Cc2ccco2)Cc2ccccc2Cl)cc1	/	-12%	/	2%[46.1 µM]	-24%	-30%[46.1 µM]	-24%	/
O=C1C2C3C=CC(CC3)C2C(=O)N1c1ccccc1 (stereo not drawn)	-1%	/	-2%	/	-6%	/	/	3%
COc1ccc(-n2ncc3c2CC(C)(C)CC3NC(=O)c2ccnn2C)cc1 (stereo not drawn)	-4%	/	0%	/	-10%	/	/	11%
CC(=O)N1CCCC1c1nc2ccccc2n1Cc1c(F)cccc1Cl (stereo not drawn)	/	-6.3%	/	4%[46.1 µM]	18%	9%[46.1 µM]	7%	/
CC1CCCC(NC(=O)Cn2cc(Br)ccc2=O)C1C (stereo not drawn)	/	/	-2%	-1%	-19%	16%	/	7%
CCN1CCc2c(sc(NC(=O)c3cc4ccccc4cc3OC)c2C(N)=O)C1	-31%	/	-6%	-2%[46.1 µM]	-8%	11µM*	/	-9%
Cc1csc(SCC(=O)Nc2cc(C(C)(C)C)nn2-c2ccccc2)n1	-16%	-0.6%	-2%	?	?	?	-2%	-4%
CCC(=O)C1=C(c2ccc(OC)c(OC)c2)N(C(=O)CC)n2c(nnc2-c2ccc(C)cc2)S1	/	-1.0%	/	?	-11%	/	-4%	/
COc1ccccc1CN1CCC(CNC(=O)c2cnn(-c3ccc(Cl)cc3)c2C2CCN(C(=O)OC(C)(C)C)CC2)CC1	/	1.7%	/	?	0%	/	-10%	/
O=C(Cn1nnc(-c2ccccc2F)n1)NCc1ccco1	-4%	/	0%	1%	11%	28%[46.1 µM]	/	8%
Cc1ccc(S(=O)(=O)N2CCN(C(=O)[C@H](Cc3ccccc3)NC(=O)c3ccco3)CC2)cc1C	/	/	9%	-19%	-21%	-14%	/	-11%
Cc1cc(C)cc(NC(=O)N2CCCC2C(=O)Nc2ccc(-n3cnnn3)cc2)c1 (stereo not drawn)	-9%	1.8%	6%	-1%	-13%	-7%	-3%	4%
COc1ccc2c(CN3CCN(S(=O)(=O)c4cccs4)CC3)cc(=O)oc2c1	11%	-6.3%	20%	-3%	40µM*	/	-28%	3%
CCN(CC(=O)Nc1cc(C)on1)CC(=O)Nc1ccccc1C(F)(F)F	/	/	-2%	14%	-15%	21%	/	22%
CCCCn1c(NC(C)CC)nc2c1c(=O)[nH]c(=O)n2C (stereo not drawn)	-20%	0.5%	-5%	-8%	-23%	-1%	3%	3%
CC1(C)CC(=O)C2=C(C1)N(Cc1cccnc1)C(=O)C2(NC(=O)C1CC1)C(F)(F)F (stereo not drawn)	4%	5.6%	-2%	16%	-13%	-29%	-5%	4%
Cc1ccc(CNc2ncccc2-c2nc3cc(Cl)ccc3o2)cc1	6%	-12%	-14%	-2%	20%	-19%	10µM*	-1%
COc1ccc(NC(=O)CN(C)C(=O)CCCN2C(=O)c3cccc4cccc(c34)C2=O)cc1	/	/	2%	-12%	9%	1%	/	1%
COC(=O)c1c(C)nc2nonc2c1N	-3%	/	1%	/	0%	/	/	16%
Cc1c(C(=O)NCc2cccnc2)oc2ccc(S(=O)(=O)N3CCC4(CC3)OCCO4)cc12	-9%	-2.3%	-2%	-12%	/	-5%	12%	4%
CCC(Cc1ccccc1)NC(=O)C1CCCCC1 (stereo not drawn)	10%	/	1%	/	-11%	/	/	1%
Cc1ccc(-n2nnnc2CNC(=O)c2cc(C(F)(F)F)cc(C(F)(F)F)c2)cc1C	/	-13%	/	-11%[46.1 µM]	?	/	?	/
Nc1nc(N2CCOCC2)nc2ccccc12	-2%	1.3%	-10%	13%	8%	-4%	8%	0%
CCOc1ccccc1NC(=O)c1c(C)cc(C)nc1SCC(=O)c1cccc(OC)c1	/	-4.8%	/	-28%[46.1 µM]	-18%	?	-8%	/
(more compounds)
SMILES	NS1 inh	Cruzain inh Det	SARS PLP yeast	LASV entry inh	2A StopGo	MARV entry inh	Cruzain noTriton	RE007 growth inh
COc1ccccc1NC(=O)Cn1cc(C#N)c2ccccc21	-3%	-4.9%	7%	9%	?	26%	-2%	0%
CC(C)(C)OC(=O)N1CCOCCOCCN(C(=O)OC(C)(C)C)CCOCCOCC1	-3%	4.2%	2%	13%	-6%	-5%&-5%	?	-8%
C/C=C/c1ccc(OCC(=O)OCc2csc(CC(=O)Nc3ccccc3C)n2)c(OC)c1	16%	/	-3%	1%	-10%	-3%	/	-3%
Cc1ccc2c(CN3CCN(Cc4ccccc4)CC3)cc(=O)oc2c1	-1%	/	-1%	/	-12%	/	/	-8%
CCOc1ccc(C(=O)Nc2ccc3c(c2)OCCO3)cc1OC	-13%	4.0%	-15%	-30%	0%	?	-3%	-19%
COc1ccc(C(=O)N2CCN=C2SCc2cccnc2)c(OC)c1	6%	0.2%	-2%	/	-4%	/	5%	-4%
CCOC(=O)N1CCN(C(=O)c2cnc3n(c2=O)CCS3)CC1	8%	2.6%	-2%	26%	-8%	-17%	-8%	7%
Cc1c(NC(=O)c2ccc(CC(C)C)o2)c(=O)n(-c2ccccc2)n1C	2%	/	-1%	-10%[46.1 µM]	4%	?	/	-8%
COC(=O)c1c(-c2cccs2)csc1NC(=O)c1ccc(C(C)(C)C)cc1	/	-3.2%	/	1%[46.1 µM]	-28%	?	?	/
CC1(C)CC(NCCC(c2ccccc2)c2ccco2)CCO1 (stereo not drawn)	1%	/	1%	8%[46.1 µM]	5%	?	/	0%
CCOC(=O)C1C2NC(=O)N(Cc3ccccc3)C1(C)Oc1c(OC)cccc12 (stereo not drawn)	6%	0.8%	-6%	-12%	1%	-12%	-1%	-1%
Cc1cccc(N2CCN(S(=O)(=O)c3ccc4c(c3)NC(=O)CO4)CC2)c1C	-2%	/	4%	?	-27%	?	/	-2%
O=C(CN1C(=O)C(c2ccccc2)Oc2cccnc21)NCc1ccccc1F (stereo not drawn)	4%	/	-5%	/	-7%	/	/	-2%
